# KDM4E inh: inhibitors of human JMJD2E histone demethylase; JMJD2E catalytic domain, FDH-coupled NADH fluorescence (FDH is formaldehyde dehydrogenase); Potency, µM (top dose mostly 57.1 µM), for the others: at the highest dose activity change, negative = inhibition, most hits filed as inhibitors; 1.6% of 230,000 active; active = well fitted inhibition curve with a large enough effect, not every such curve was filed as active; inconclusive = small, poorly fitted or top-dose-only effect, or another doubt; inactive = no such curve, though single readings can be large or run the other way;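 also: 0% = wells with enzyme and -100% = buffer wells without enzyme; nearly all actives have a fitted effect of over 50% in size; many of its hits are not listed in these tables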
# TR SRC2 fluor cs: Texas Red fluorescence interference in TRb-SRC2 counter-screen | Potency, µM (doses to about 106 µM), for inactives: at the top dose fluorescence change, negative = quenching | AID 1479 | 0.29% of 280,000 active | TRb/SRC2 Texas Red total fluorescence interference; active = well fitted curve in either direction with a large enough effect; inconclusive = small, poorly fitted or top-dose-only effect
#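 Flags fluorescent or light-absorbing compounds by total fluorescence, S + 2P, at 555 nm excitation and 632 nm emission. Mixture: 20 nM Texas Red SRC2 peptide, 0.6 uM human TRb LBD, 1 uM T3, 5% DMSO; compound exposure 5 h at ambient temperature.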
# GoLoco inh red: inhibitors of human Gai1-RGS12 GoLoco interaction (red fluorophore). Gai1:RGS12 GoLoco peptide FP, rhodamine, 10 min. Potency, µM (highest dose often 61.6 µM), for the others: at the top dose activity, negative = inhibition, usual class: inhibitors. 0.44% of 230,000 active; active = well fitted inhibition curve with a large enough effect, not every such curve was filed as active; inactive = no such curve, though single readings can be large or run the other way; also: nearly all actives have a fitted effect of over 30% in size; many of its hits are not listed in these tables
# TRb-SRC2 inh: disrupts binding of human TR beta to SRC2; P10828; TRbeta-SRC2 peptide binding, fluorescence polarization; receptor liganded with 1 µM T3; Potency, µM (doses to about 106 µM), for inactives: at the top dose activity change, negative = inhibition, hits mostly inhibitors; 0.065% of 280,000 active; AID 1469; active = well fitted inhibition curve with a large enough effect; inconclusive = small, poorly fitted or top-dose-only effect, or effect the other way;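 also: plate controls were bound peptide for no effect and peptide without receptor for full effect; nearly all actives have a fitted effect of over 50% in size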
# Target sequence (P10828 whole entry, looked up): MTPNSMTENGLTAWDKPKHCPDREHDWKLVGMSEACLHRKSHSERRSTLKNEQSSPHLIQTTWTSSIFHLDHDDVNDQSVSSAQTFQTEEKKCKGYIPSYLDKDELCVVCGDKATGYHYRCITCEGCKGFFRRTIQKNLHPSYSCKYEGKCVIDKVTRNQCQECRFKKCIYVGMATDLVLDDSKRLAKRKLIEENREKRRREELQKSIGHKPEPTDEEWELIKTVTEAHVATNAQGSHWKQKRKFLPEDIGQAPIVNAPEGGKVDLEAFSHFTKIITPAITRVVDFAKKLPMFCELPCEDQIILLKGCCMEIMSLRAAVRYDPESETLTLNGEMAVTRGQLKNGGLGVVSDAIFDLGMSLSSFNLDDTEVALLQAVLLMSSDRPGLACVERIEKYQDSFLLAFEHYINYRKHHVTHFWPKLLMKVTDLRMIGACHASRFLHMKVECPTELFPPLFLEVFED
#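 Quantitative HTS by FP: 0.6 uM TRb LBD, 20 nM labeled SRC2 20-mer, 1 uM T3, 5% DMSO; 5 hr ambient incubation; % activity per concentration and potencies from concentration series.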
# * = called active by the depositor; ? = inconclusive; nt = no result given; & = joins results of further samples; [ ] = remark or other dose. Unless noted, % is scaled to controls: 0 for no effect and ±100 for the full control effect; potency is read from the fitted curve at half-maximal effect.
1) C[C@]12CCC(=O)C=C1CC[C@@H]1[C@H]2[C@@H](O)C[C@@]2(C)[C@H]1CC[C@]2(O)C(=O)CO
2) O=C(CSc1nnc(-c2ccncc2)n1-c1ccc(F)cc1)NC(=O)NCc1ccco1
3) C[C@]12CCC(=O)C=C1CCC1C2C(O)C[C@]2(C)C1CC[C@]2(O)C(=O)CO (stereo not given in full)
4) COc1ccc(C(=O)OCC(=O)NCc2ccco2)cc1OC
5) CS(=O)(=O)Nc1ccc([N+](=O)[O-])cc1Oc1ccccc1
6) O=C(COC(=O)CCOc1ccccc1)NCc1ccco1
7) CC(=O)O[C@]1(C(C)=O)CC[C@@H]2[C@@H]3C=C(C)C4=CC(=O)CC[C@@]4(C)[C@H]3CC[C@]21C
8) Cc1cccc(C(=O)Oc2ccc(/C=N/NC(=O)Cc3ccc([N+](=O)[O-])cc3)cc2)c1

compound no.	1	2	3	4	5	6	7	8
KDM4E inh	nt	-5%	10%	-3%	?	3%	-4%[25.5 µM]	8%
TR SRC2 fluor cs	2%	-2%	0%	-3%	1%	1%	1%[53 µM]	-2%
GoLoco inh red	0%	9%	2%	-2%	3%	3%	-4%[21.6 µM]	11%
TRb-SRC2 inh	2%	-16%	-1%	-2%	-1%	-4%	-2%[53 µM]	-6%

# Part of the list above, showing only TR SRC2 fluor cs, GoLoco inh red and TRb-SRC2 inh:
item	Structure	TR SRC2 fluor cs	GoLoco inh red	TRb-SRC2 inh
1	C[C@]12CCC(=O)C=C1CC[C@@H]1[C@H]2[C@@H](O)C[C@@]2(C)[C@H]1CC[C@]2(O)C(=O)CO	2%	0%	2%
8	Cc1cccc(C(=O)Oc2ccc(/C=N/NC(=O)Cc3ccc([N+](=O)[O-])cc3)cc2)c1	-2%	11%	-6%

# Seven entries from above, arranged by molecular weight, high to low.
2) O=C(CSc1nnc(-c2ccncc2)n1-c1ccc(F)cc1)NC(=O)NCc1ccco1
8) Cc1cccc(C(=O)Oc2ccc(/C=N/NC(=O)Cc3ccc([N+](=O)[O-])cc3)cc2)c1
7) CC(=O)O[C@]1(C(C)=O)CC[C@@H]2[C@@H]3C=C(C)C4=CC(=O)CC[C@@]4(C)[C@H]3CC[C@]21C
3) C[C@]12CCC(=O)C=C1CCC1C2C(O)C[C@]2(C)C1CC[C@]2(O)C(=O)CO (stereo not given in full)
4) COc1ccc(C(=O)OCC(=O)NCc2ccco2)cc1OC
5) CS(=O)(=O)Nc1ccc([N+](=O)[O-])cc1Oc1ccccc1
6) O=C(COC(=O)CCOc1ccccc1)NCc1ccco1

compound no.	2	8	7	3	4	5	6
KDM4E inh	-5%	8%	-4%[25.5 µM]	10%	-3%	?	3%
TR SRC2 fluor cs	-2%	-2%	1%[53 µM]	0%	-3%	1%	1%
GoLoco inh red	9%	11%	-4%[21.6 µM]	2%	-2%	3%	3%
TRb-SRC2 inh	-16%	-6%	-2%[53 µM]	-1%	-2%	-1%	-4%

# Copied from the list:
# cpd 6 – TR SRC2 fluor cs = 1%
# cpd 1 – TRb-SRC2 inh = 2%

# Further results.
9) Cc1cc(Br)ccc1SCC(=O)OCC(=O)NCc1ccco1
10) OC(CCN1CCCC1)(c1ccccc1)C1CCCCC1 (stereo not given)
11) O=C(COC(=O)/C=C/c1ccco1)Nc1ncc(Cl)cc1Cl
12) CC(=O)OCC(=O)[C@]1(O)C(C)CC2C3CCC4=CC(=O)C=C[C@@]4(C)[C@]3(F)C(O)C[C@@]21C (stereo not given in full)
13) CCNC(=O)C1CC(=O)N(CC)C(=Nc2cc(Cl)c(O)c(Cl)c2)S1 (stereo not given)
14) COc1cc([C@H](Cc2ccccc2)NC(C)=O)oc(=O)c1
15) CC(C)OC(=O)c1ccc(N)cc1

compound no.	9	10	11	12	13	14	15
KDM4E inh	-4%	3%&-3%	-4%	-4%	-5%	-8%	5%
TR SRC2 fluor cs	-4%	4%&-2%	-2%	-2%	-7%	-2%	-2%[53 µM]
GoLoco inh red	9%	4%&4%	21%	6%	-21%	-9%	3%
TRb-SRC2 inh	7%	1%&4%	-9%	10%	-6%	4%	-1%[53 µM]

# Some of the compounds tested, so the mix of outcomes need not match the whole.
